# GLS inhibitor – qHTS for Inhibitors of Glutaminase (GLS); actives 0.21% (n = 410,000); GLS enzymatic activity, qHTS titration; Potency, µM (doses to about 45.5 µM), for the others: at the highest dose activity change, negative = inhibition, most hits filed as inhibitors; note: % is set by controls: 0 for no effect and ±100 for the full control effect
#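 Compounds were pin-transferred onto hKGA, after which L-glutamine (1 mM solution) and a detection mix of glutamate oxidase, HRP and Amplex Red were added. Initial and 30 min RT fluorescence reads were collected.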
# Tb PGK inh – qHTS Assay to Find Inhibitors of Phosphoglycerate Kinase. Phosphoglycerate kinase, glycosomal (Trypanosoma brucei brucei), P07378. PGK/GAPDH coupled, Kinase-Glo luminescence, 60 min. Potency, µM (series often up to 57.5 µM), for inactives: top-dose activity change, negative = inhibition, hits mostly inhibitors. actives 0.043% (n = 380,000); note: % is set by controls: 0 for no effect and ±100 for the full control effect; nearly all actives have a fitted effect of over 60% in size
#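 Recombinant glycosomal PGK reaction used 1,3-bisphosphoglycerate generated in-well by GAPDH (100nM final) in 100mM TEA pH 7.6, 5mM MgCl2, 0.01% Tween-20. After 60 minutes at room temperature, ATP was read by Kinase-Glo Plus luminescence end-point.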
# ERG Ets-DNA blk – qHTS for Small Molecule Inhibitors of the ERG Ets/DNA interaction; actives 0.028% (n = 370,000); Potency, µM (series often up to 76.9 µM), for inactives: at the highest dose FP activity, negative = inhibition, hits mostly inhibitors; fluorescence polarization, His-ERG Ets domain / labelled DNA; Transcriptional regulator ERG (Homo sapiens), P11308; active = well fitted inhibition curve with a large enough effect in the polarisation, with a control signal flat; inconclusive = small, poorly fitted or top-dose-only effect, or effect the other way, or a change in a side signal; inactive = no such curve, though single readings can be large or run the other way; the % refers to the polarisation;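 note: polarization taken with two DNA probes labelled with fluorescein and Texas red; % of control where 0% means no effect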
#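 His-tagged ERG Ets domain (1 uM in the protein solution; 300mM KCl, 50mM Tris-HCl, 1mM EDTA, 1mM DTT, pH 7.5) received compound, then a probe mix of 5 nM fluorescein-DNA and 100nM Texas-615-DNA. Fluorescence polarization was read for both dyes.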
# rTrxR1 inhibitor – qHTS Assay for Inhibitors of Mammalian Selenoprotein Thioredoxin Reductase 1 (TrxR1): qHTS. Potency, µM (titrated, usually from 114 µM), inactives show at the top dose activity change, negative = inhibition, most hits filed as inhibitors. recombinant rTrxR1, NADPH fluorescence consumption, selenite substrate. AID 588453, 2011. Thioredoxin reductase 1, cytoplasmic (Rattus norvegicus), O89049. actives 1% (n = 390,000); note: % is set by controls: 0 for no effect and ±100 for the full control effect; nearly all actives have a fitted effect of over 65% in size
#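 Rat TrxR1 (90 nM in the dispensed reagent) was pre-reduced with 400 uM NADPH for 5 min at room temperature, then incubated with compound for 15 min. After 400 uM selenite was added, NADPH fluorescence (Ex 340/Em 450 nm) was followed for 8 min.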
# Pin1 inh – qHTS Assay to Find Inhibitors of Pin1; Peptidyl-prolyl cis-trans isomerase NIMA-interacting 1 (Homo sapiens), Q13526; Pin1 FP peptide displacement, HiFluor488, 10 min; Potency, µM (series often up to 115 µM), without a hit: at the top dose activity, negative = inhibition, usual class: inhibitors; actives 0.009% (n = 390,000); AID 504891, 2011; active = well fitted inhibition curve with a large enough effect in the polarisation, with a control signal flat, not every such curve was filed as active; inconclusive = small, poorly fitted or top-dose-only effect, or effect the other way, or a change in a side signal; inactive = no such curve, though single readings can be large or run the other way; the % refers to the polarisation; note: % is set by controls: 0 for no effect and ±100 for the full control effect
# Target sequence (Q13526 whole entry, looked up): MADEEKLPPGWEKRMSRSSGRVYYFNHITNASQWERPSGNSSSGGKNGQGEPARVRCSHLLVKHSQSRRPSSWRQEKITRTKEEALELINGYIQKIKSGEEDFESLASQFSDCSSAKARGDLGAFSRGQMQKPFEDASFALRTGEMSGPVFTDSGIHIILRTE
# 12-LOX inh – Primary qHTS assay for inhibitors of human arachidonate 12S-lipoxygenase (ALOX12): Round 2. purified 12hLO, xylenol orange hydroperoxide absorbance. Potency, µM (doses to about 108 µM), inactives show top-dose activity change, negative = inhibition, hits mostly inhibitors. actives 1.1% (n = 580,000). AID 1671190, 2021; note: % is set by controls: 0 for no effect and ±100 for the full control effect
# Target sequence (P18054 whole entry, looked up): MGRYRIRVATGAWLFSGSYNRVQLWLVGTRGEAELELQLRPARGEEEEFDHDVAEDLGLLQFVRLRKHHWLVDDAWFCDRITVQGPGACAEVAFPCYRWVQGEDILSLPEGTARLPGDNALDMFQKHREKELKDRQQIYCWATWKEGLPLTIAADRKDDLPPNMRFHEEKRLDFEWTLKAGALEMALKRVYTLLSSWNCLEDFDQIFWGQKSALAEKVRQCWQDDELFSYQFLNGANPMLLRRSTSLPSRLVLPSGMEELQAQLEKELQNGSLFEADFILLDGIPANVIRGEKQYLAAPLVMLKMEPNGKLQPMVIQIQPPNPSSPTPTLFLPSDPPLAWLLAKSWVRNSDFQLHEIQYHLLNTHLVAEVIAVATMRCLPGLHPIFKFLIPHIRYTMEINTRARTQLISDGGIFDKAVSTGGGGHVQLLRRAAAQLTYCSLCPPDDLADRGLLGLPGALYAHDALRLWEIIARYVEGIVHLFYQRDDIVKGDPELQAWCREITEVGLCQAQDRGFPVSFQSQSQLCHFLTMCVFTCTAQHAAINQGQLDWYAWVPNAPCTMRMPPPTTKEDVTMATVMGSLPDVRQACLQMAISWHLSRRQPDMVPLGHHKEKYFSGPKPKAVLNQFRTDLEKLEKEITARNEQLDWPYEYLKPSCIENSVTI
#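 Purified human 12hLO (150 nM final) in 25 mM Hepes, 0.01% Triton X-100, pH 7.0 was preincubated 15 min at room temperature with compound. Then 40 uM arachidonic acid was added, 30 min. Hydroperoxide was read by Fe-XO absorbance ratio 573/405 nm.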
# RGS4 inh – Inhibitors of Regulator of G Protein Signaling (RGS) 4: qHTS; Transcreener GDP fluorescence polarization, RGS4-accelerated GTP hydrolysis; Potency, µM (series often up to 114 µM), for inactives: at the top dose activity change, negative = inhibition, actives largely listed as inhibitors; actives 0.039% (n = 390,000); AID 504845, 2011; note: % is set by controls: 0 for no effect and ±100 for the full control effect; nearly all actives have a fitted effect of over 75% in size; some results filed as inactive show a strong effect at the top dose
# Target sequence (P49798 whole entry, looked up): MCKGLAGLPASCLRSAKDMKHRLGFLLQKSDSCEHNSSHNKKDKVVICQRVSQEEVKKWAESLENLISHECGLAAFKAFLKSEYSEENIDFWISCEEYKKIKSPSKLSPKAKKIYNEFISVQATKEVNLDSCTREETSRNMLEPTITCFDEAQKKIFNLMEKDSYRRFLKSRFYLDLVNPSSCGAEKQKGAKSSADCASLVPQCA
#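 MLSMR compounds (23 nl, pin-transferred) preincubated 10 min at room temperature with a 500nM (2x) first reagent, then RGS4 at 900nM (2x) plus Transcreener GDP mix added; fluorescence polarization (620/688 nm) read before and after 90 min at 30 °C.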
# Active calls of the source: *; i = inactive; ? = inconclusive; · = not tested or not shown; [ ] = dose if it differs, or a comment. Unless noted, calls come from the whole dose curve; as a rule, active = well fitted curve in the direction sought with a large enough effect; inconclusive = small, poorly fitted or top-dose-only effect, or another doubt; inactive = no such curve, though single readings can be large; an effect the other way counts as inactive or inconclusive. Potency is the fitted concentration of half-maximal effect.
entry	Molecule	GLS inhibitor	Tb PGK inh	ERG Ets-DNA blk	rTrxR1 inhibitor	Pin1 inh	12-LOX inh	RGS4 inh
1	COc1ccc(CCNC(=O)C2CCN(S(=O)(=O)c3cccc4cccnc34)CC2)cc1OC	9.7%	-0.6%	0.8%	29.8%[57.1 µM]	2.6%	·	-66.7%[56.9 µM]
2	COC(=O)[C@H](C(C)C)N(Cc1ccccc1)S(=O)(=O)CCN1CCCC1	14.5%	1.0%	0.1%	9.7%	1.8%	-8.5%	-1.3%
3	C=CCNC(=S)N1CCN(Cc2ccccc2)CC1	1.4%	-8.0%	1.2%	7.2%	-1.3%	?	-39.7%
4	COc1ccccc1C(=O)Nc1ccc(C(=O)OCc2cc(=O)n3ccsc3n2)cc1	-7.7%	4.3%	-8.4%	2.3%[57.1 µM]	?	-22.1%	-2.7%
5	CCc1cccc(CC)c1NC(=O)c1cccc(S(=O)(=O)N2CCN(C)CC2)c1	-4.6%	-9.6%	-0.4%	-10.0%	-5.8%	·	-36.7%
6	COc1ccc(S(=O)(=O)CCc2nnc(NC(=O)c3cccs3)s2)cc1	-1.9%	4.8%	0.4%	4.5%	1.3%	0.0%	19.5%
7	N#Cc1cc2c(nc1SCC(=O)Nc1nccs1)CCCCC2	0.2%	-0.4%	1.9%	41.8%[activator]	8.4%	12.7%	-17.4%
8	Cc1ccc(/C=C2/Sc3ccc(C(=O)N4CCN(c5ccccn5)CC4)cc3NC2=O)cc1	-7.7%	-9.9%	-9.3%	8.9%	?	-23.6%	-22.4%
9	O=C1N(CN2C(=O)C3(OCCO3)c3ccccc32)c2ccccc2C12OCCO2	3.2%	-3.5%	1.1%	15.2%[57.1 µM]	?	7.8%	-30.0%
10	CC1(C)CC(/C=C/c2ccccc2)=Nc2ccccc2N1	23.2%	-0.3%	-0.5%	-34.9%	?	?	-24.9%
11	CC(/C=N/n1c(-c2cc(C)[nH]n2)n[nH]c1=S)=C\c1ccco1	56.1%[activator]	-4.9%	3.4%	?	?	?	-49.5%
12	COc1ccc(/C(O)=C2/C(=O)C(=O)N(CCN3CCOCC3)C2c2ccccn2)cc1 (stereo unspecified)	3.3%	-4.5%	1.1%	50.1µM*	-2.3%	-4.3%	-47.2%
13	O=C(Oc1ccc(/C=N/NC(=O)c2ccccc2F)cc1)c1ccccc1	-1.4%	1.5%	-2.3%	27.1%	-0.9%	-0.2%	-6.4%
14	CC(C)(C)CC(C)(C)NCC(=O)Nc1c2c(nc3ccccc13)CCC2	3.5%	-3.7%	3.3%	22.0%	1.9%	-21.0%	36.7%
15	O=C(O)c1ccccc1NC(=O)N1c2ccccc2Sc2ccccc21	22.0%	-0.5%	2.8%	-19.6%	-9.8%	?	-51.3%
16	Oc1ccc(CNCC2COc3ccccc3O2)cc1 (stereo unspecified)	28.7%	-8.2%	12.9%	13.5%	4.1%	?	12.2%
17	COc1cc(O)c(CC=C(C)C)c(O)c1C(=O)CCc1ccc(O)cc1	-9.5%	3.1%	8.3%	4.3%	-1.1%	?	-2.9%
18	Cc1cccc(S(=O)(=O)C(C#N)c2nc3ccccc3nc2N2CCOCC2)c1 (stereo unspecified)	39.3%[activator]	-8.8%	0.0%	-10.9%	-3.8%	?	-22.0%
19	O=C(Nc1nn[nH]n1)C12CC3CC(CC(C3)C1)C2	-1.2%	·	·	17.9%	-10.5%	?	2.5%
20	S=c1nc(-c2ccccc2Cl)[nH][nH]1	-32.5%	-1.6%	2.3%	?	-8.4%	15.8µM*	?
21	C/C(=N\N(c1ccccc1)c1ccccc1)c1ccco1	14.6%	i	4.7%	-13.2%	-6.1%	0.3%	-44.6%
22	c1csc(-c2nc3ccccn3c2Nc2ccc3c(c2)OCCO3)c1	24.1%	-2.2%	7.5%	7.4%	0.7%	?	13.2%
23	C=CCSC1=N/C(=C\c2ccc(C)o2)C(=O)S1	6.5%	-11.2%	-0.6%	?	-8.3%	-22.1%	-37.1%
24	COc1cccc(C(=O)OCC(=O)Nc2nnc(-c3ccccc3)o2)c1	2.9%	5.9%	-2.3%	2.6%	-3.6%	-6.2%	16.3%

# Brought forward from above: four compounds, followed by the next part.
entry	Molecule	GLS inhibitor	Tb PGK inh	ERG Ets-DNA blk	rTrxR1 inhibitor	Pin1 inh	12-LOX inh	RGS4 inh
21	C/C(=N\N(c1ccccc1)c1ccccc1)c1ccco1	14.6%	i	4.7%	-13.2%	-6.1%	0.3%	-44.6%
22	c1csc(-c2nc3ccccn3c2Nc2ccc3c(c2)OCCO3)c1	24.1%	-2.2%	7.5%	7.4%	0.7%	?	13.2%
23	C=CCSC1=N/C(=C\c2ccc(C)o2)C(=O)S1	6.5%	-11.2%	-0.6%	?	-8.3%	-22.1%	-37.1%
24	COc1cccc(C(=O)OCC(=O)Nc2nnc(-c3ccccc3)o2)c1	2.9%	5.9%	-2.3%	2.6%	-3.6%	-6.2%	16.3%
25	COc1ccc(CC(C)N2CCN(c3ccccc3OC)CC2)cc1OC (stereo unspecified)	33.3%[activator]	-0.3%	-0.1%	13.3%	-9.2%	-21.0%	-14.3%
26	Cc1cc2c(cc1S(=O)(=O)N(CCO)Cc1ccccc1)OCC(=O)N2	-7.6%	-0.3%	2.3%	5.4%[57.1 µM]	1.9%	-19.0%	-12.0%
27	CCN(CC)S(=O)(=O)c1ccc(C)c(NC(=O)CN2CCN(Cc3ccccc3)CC2)c1	-2.9%	-1.1%	2.7%	0.4%	-4.3%	-12.7%	-2.2%
28	Cc1ccc(C(C)C)c(OCCCN2CC(C)OC(C)C2)c1 (stereo unspecified)	0.8%	-6.0%	-19.5%	-5.7%[11.4 µM]	-1.7%	?	2.1%
29	CN(C)CCN(C(=O)c1ccc2ccccc2c1)c1nc2cc3c(cc2s1)OCCO3	1.3%	-8.6%	-8.8%	13.0%	13.4%	0.9%	-5.9%
30	CC1Cc2ccccc2N1CC(=O)NC(=O)NCc1ccco1 (stereo unspecified)	5.4%	-5.2%	-7.8%	?	-19.9%	-44.3%	-44.7%
31	CC1CCN(S(=O)(=O)c2cn(CC(=O)Nc3ccc(C#N)cc3)cn2)CC1	-0.2%	-8.9%	-1.9%	14.4%	-9.6%	?	17.4%
32	CN(C)CCCCOc1ccccc1F	?	1.8%	-2.5%	20.5%[57.1 µM]	-6.5%	-23.7%	-2.4%
33	Cc1cc(C)n(-c2ncc(-c3ccccc3)nn2)n1	-1.9%	-5.0%	-3.2%	21.6%	-1.4%	8.1%[57.4 µM]	3.3%
34	CCOC(=O)c1c(NC(=O)CN(C)C)sc(C(=O)N(CC)CC)c1C	12.8%	-2.7%	4.3%	3.7%	0.1%	0.0%	7.9%
35	COc1ccc(-c2nc3cnccn3c2Nc2ccc3c(c2)OCO3)cc1	13.5%	-5.7%	-4.6%	3.2%[57.1 µM]	-0.9%	5.0%	-46.4%
36	COc1cc(/C=C2\CCn3c2nc2cc(C(=O)O)ccc2c3=O)ccc1OC(F)F	-9.4%	?	1.8%	-8.3%	?	-0.8%	-27.7%
37	O=C(COc1ccccc1)Nc1nnc(-c2ccc(F)cc2)o1	9.3%	-3.0%	-13.6%	24.7%	-12.4%	9.9%	27.2%
38	Cc1ccsc1C=Nc1c(C)n(C)n(-c2ccccc2)c1=O	22.3%	i	-2.3%	7.6%	0.4%	4.8%	28.9%
39	CC1CCN(S(=O)(=O)c2cc(C(=O)NCc3ccccc3)n(C)c2)CC1	-0.8%	-1.4%	-1.7%	-18.8%[57.1 µM]	-14.5%	-31.5%	-25.2%
40	C/C(=N\N1CCN(Cc2ccccc2Cl)CC1)c1ccc([N+](=O)[O-])cc1	12.8%	1.8%	1.6%	12.9%	-3.3%	-14.2%	31.1%
41	CCc1nc(SCc2ccc(C(=O)OC)o2)n[nH]1	0.0%	-1.0%	4.9%	-2.1%[57.1 µM]	0.9%	-13.2%	10.9%
42	Cc1cccc(N2C(=O)C3CCCN3C2=S)c1C (stereo unspecified)	-0.8%	-6.1%	9.9%	29.6%	-2.3%	-16.2%	2.9%
43	CCc1cccc(C)c1Nc1c(-c2cccc(O)c2)nc2sccn12	7.6%	i	0.5%	-10.5%	-0.4%	?	-9.6%
44	COc1ccc(N=C2S/C(=C\c3ccc(C)o3)C(=O)N2CC(C)C)cc1	-19.2%	1.1%	-7.5%	-10.1%[57.1 µM]	?	0.0%	?
45	Cc1nnc(NC(=O)c2ccc(S(=O)(=O)N3CCCCCC3)cc2)o1	1.3%	-9.6%	-16.9%	4.7%	-1.1%	23.7%	-28.0%
46	OCc1nn2c(c1Br)NC(c1ccccc1)CC2C(F)(F)F (stereo unspecified)	10.4%	i	-0.3%	14.3%[57.1 µM]	3.9%	2.9%	-28.2%[11.4 µM]
47	CCN(CC)C(=O)c1cc(Cl)ccn1	-19.9%	-6.5%	-3.0%	30.1%[57.1 µM]	-16.6%	?	?
48	Cc1c(-c2nc(-c3ccncc3)no2)cccc1[N+](=O)[O-]	2.4%	-2.8%	-0.4%	26.0%	0.8%	70.4%[activator]	-26.1%
49	C[C@H](NC(=O)c1[nH]cnc1C(=O)Nc1ccc(CNC(=O)OC(C)(C)C)cc1)C(=O)OC(C)(C)C	2.9%	-2.5%	-9.7%	-7.2%	?	6.1%	?
50	CCCc1nc2ccccc2c(NC(=O)CN(CC)CC)c1CC	-4.4%	-5.7%	0.9%	9.9%	-10.9%	?	1.4%
51	COc1cccc(C(=O)N2CCN(C3CCC(c4ccccc4)CC3)CC2)c1 (stereo unspecified)	0.9%	0.1%	0.6%	2.5%	6.0%	?	5.5%
52	CN(C)CCCO/N=C(\c1ccccc1)c1ccncc1	-4.6%	-7.3%	-3.5%	7.7%	?	-22.3%	-8.7%
53	CC(C)c1ccc2c(c1)NC(c1ccc(F)cc1)=NC(c1cccs1)=N2	0.7%	-3.7%	-5.3%	-3.2%	-0.3%	-14.5%	-15.8%

# Some of the compounds tested; rates above refer to the full screens.
